Bioassay records (PubChem BioAssay)
A1 apoptosis 2: compounds inhibiting A1, read as caspase activation; MEF A1-2A-BIM cells, caspase-Glo luminescence, 3 h; percent of clofoctol response, DMSO zero; 24,000 tested, under 10 active; caspase activation, % (no concentration beside the values); in the data active means caspase activation above about 5.9%;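 further: wells of about 30 µL received 50 nL stock; the first replicate is given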
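Test system – A1-2A-BIM-expressing MEF cells · Input – 2500 cells/well · Medium – RPMI-1640 growth medium with 10% FBS · Compound dosing – 50 nL pinned compound · Timing – 3 h compound exposure at 37 °C · Technique – Caspase-Glo luminescence (DEVD substrate) · Evaluation – Caspase-3/7 activity from luminescence increase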
An asterisk follows results filed as active.

no.	structure	A1 apoptosis 2
1	C[C@@H]1CCCCO[C@H](CN(C)Cc2ccc(C(F)(F)F)cc2)[C@H](C)CN([C@@H](C)CO)C(=O)c2cc(NS(=O)(=O)c3ccc(Cl)cc3)ccc2O1	0.2
2	CNC[C@H]1Oc2c(NC(=O)c3nc4ccccc4s3)cccc2C(=O)N([C@H](C)CO)C[C@H]1C	-0.7
3	C[C@@H]1CCCCO[C@@H](CN(C)C(=O)C2CCCCC2)[C@@H](C)CN([C@@H](C)CO)C(=O)c2cc(NS(=O)(=O)c3cccs3)ccc2O1	0.5
4	C[C@@H]1CN([C@@H](C)CO)C(=O)c2cccc(NS(=O)(=O)c3ccc(Cl)cc3)c2O[C@H]1CN(C)C(=O)Nc1ccc2c(c1)OCO2	1.8
5	C[C@H]1CN([C@@H](C)CO)C(=O)c2cccc(NC(=O)c3cnccn3)c2O[C@H]1CN(C)S(=O)(=O)c1cn(C)cn1	-0.5
6	Cc1noc(C)c1S(=O)(=O)N(C)C[C@@H]1Oc2ccc(NC(=O)Cc3cn(C)c4ccccc34)cc2CC(=O)N([C@H](C)CO)C[C@@H]1C	-0.2
7	C[C@H](CO)N1C[C@H](C)[C@@H](CN(C)C)OCCCC[C@H](C)Oc2ccc(NS(C)(=O)=O)cc2C1=O	-1.7
8	Cc1ccccc1/C=N/NC(=O)c1ccccc1O	-6.5
9	Cc1noc(C)c1S(=O)(=O)N(C)C[C@@H]1Oc2ccc(NC(=O)Cc3cn(C)c4ccccc34)cc2CC(=O)N([C@@H](C)CO)C[C@H]1C	0.3
10	C[C@@H]1CN([C@H](C)CO)C(=O)c2cc(NC(=O)Cc3ccccc3)ccc2O[C@@H](C)CCCCO[C@H]1CN(C)S(=O)(=O)c1ccc(F)cc1	-1.9
11	C[C@H](CO)N1C[C@H](C)[C@@H](CN(C)S(C)(=O)=O)Oc2ccc(NC(=O)Nc3ccc4c(c3)OCO4)cc2C1=O	0.8
12	C[C@@H]1CCCCO[C@@H](CN(C)S(=O)(=O)c2ccc(Cl)cc2)[C@@H](C)CN([C@H](C)CO)C(=O)c2cc(NS(=O)(=O)c3cn(C)cn3)ccc2O1	1.3
13	CC(C)NC(=O)N(C)C[C@@H]1OCCCC[C@H](C)Oc2ccc(NC(=O)CCC(F)(F)F)cc2C(=O)N([C@H](C)CO)C[C@H]1C	0.2
14	COc1ccc(CN(C)C[C@H]2Oc3ccc(NC(=O)Nc4ccc5c(c4)OCO5)cc3CC(=O)N([C@H](C)CO)C[C@H]2C)cc1	-1.1
15	C[C@@H]1CN([C@H](C)CO)C(=O)Cc2cc(NC(=O)Cc3ccccc3)ccc2O[C@@H]1CN(C)C(=O)Nc1ccc(F)cc1	1.0
16	CNC[C@@H]1Oc2ccc(NS(=O)(=O)c3ccccc3)cc2C(=O)N([C@@H](C)CO)C[C@@H]1C	-0.1
17	CNC[C@H]1Oc2ccc(NS(=O)(=O)c3cn(C)cn3)cc2C(=O)N([C@H](C)CO)C[C@H]1C	0.2
18	C[C@H]1CN([C@@H](C)CO)C(=O)Cc2cc(NC(=O)Nc3ccccc3)ccc2O[C@@H]1CN(C)Cc1ccc(Cl)c(Cl)c1	-1.5
19	C[C@@H]1CN([C@H](C)CO)C(=O)Cc2cc(NC(=O)CCCCCC(=O)Nc3ccccc3N)ccc2O[C@@H]1CN(C)CC1CC1	0.2
20	COc1ccc(S(=O)(=O)Nc2ccc3c(c2)C(=O)N([C@H](C)CO)C[C@H](C)[C@H](CN(C)C(=O)Nc2cccc4ccccc24)OCCCC[C@H](C)O3)cc1	2.3
21	C[C@H](CO)N1C[C@H](C)[C@@H](CN(C)Cc2ccc(C(=O)O)cc2)OCCCC[C@H](C)Oc2ccc(NC(=O)NC3CCCCC3)cc2C1=O	0.5
22	C[C@H](CO)N1C[C@H](C)[C@H](CN(C)S(=O)(=O)c2ccc(F)cc2)Oc2ncc(C#CC(C)(C)O)cc2C1=O	-2.1
23	C[C@H]1C=C(C(=O)N2CCN(Cc3ccc4c(c3)OCO4)CC2)O[C@@H](OCc2ccc(CO)cc2)C1	-0.9
24	C[C@@H]1CN([C@@H](C)CO)C(=O)c2cc(NS(=O)(=O)c3cccs3)ccc2O[C@H]1CN(C)S(=O)(=O)c1ccccc1	0.5
25	C[C@H]1CCCCO[C@@H](CN(C)C(=O)CCCN(C)C)[C@@H](C)CN([C@@H](C)CO)C(=O)c2cc(NS(=O)(=O)c3ccc(F)cc3)ccc2O1	0.6

Looked up one by one from the entries so far:
no.	structure	A1 apoptosis 2
1	C[C@@H]1CCCCO[C@H](CN(C)Cc2ccc(C(F)(F)F)cc2)[C@H](C)CN([C@@H](C)CO)C(=O)c2cc(NS(=O)(=O)c3ccc(Cl)cc3)ccc2O1	0.2
4	C[C@@H]1CN([C@@H](C)CO)C(=O)c2cccc(NS(=O)(=O)c3ccc(Cl)cc3)c2O[C@H]1CN(C)C(=O)Nc1ccc2c(c1)OCO2	1.8
18	C[C@H]1CN([C@@H](C)CO)C(=O)Cc2cc(NC(=O)Nc3ccccc3)ccc2O[C@@H]1CN(C)Cc1ccc(Cl)c(Cl)c1	-1.5

Back to the main list, starting 4 compounds before the break.
no.	structure	A1 apoptosis 2
22	C[C@H](CO)N1C[C@H](C)[C@H](CN(C)S(=O)(=O)c2ccc(F)cc2)Oc2ncc(C#CC(C)(C)O)cc2C1=O	-2.1
23	C[C@H]1C=C(C(=O)N2CCN(Cc3ccc4c(c3)OCO4)CC2)O[C@@H](OCc2ccc(CO)cc2)C1	-0.9
24	C[C@@H]1CN([C@@H](C)CO)C(=O)c2cc(NS(=O)(=O)c3cccs3)ccc2O[C@H]1CN(C)S(=O)(=O)c1ccccc1	0.5
25	C[C@H]1CCCCO[C@@H](CN(C)C(=O)CCCN(C)C)[C@@H](C)CN([C@@H](C)CO)C(=O)c2cc(NS(=O)(=O)c3ccc(F)cc3)ccc2O1	0.6
26	C[C@@H]1CN([C@H](C)CO)C(=O)c2cccc(NC(=O)C3CC3)c2O[C@@H]1CN(C)S(C)(=O)=O	-0.2
27	Cc1noc(C)c1S(=O)(=O)Nc1ccc2c(c1)C(=O)N([C@H](C)CO)C[C@@H](C)[C@@H](CN(C)C(=O)Nc1ccc(F)cc1)O2	-0.7
28	C[C@H](CO)N1C[C@H](C)[C@@H](CN(C)C(=O)Nc2ccc(C(F)(F)F)cc2)Oc2c(cccc2N(C)C)C1=O	0.1
29	C[C@H]1CN([C@@H](C)CO)C(=O)Cc2cc(NC(=O)Nc3ccc4c(c3)OCO4)ccc2O[C@@H]1CN(C)C(=O)Nc1ccc(F)cc1	0.2
30	CC(C)(C)OC(=O)N1CCC[C@H]1/C=N/NC(=O)c1ccc(C(=O)NO)cc1	0.9
31	C[C@@H]1CN([C@H](C)CO)C(=O)c2cc(N(C)C)ccc2O[C@@H]1CN(C)S(=O)(=O)c1ccccc1	-0.3
32	COc1ccc(S(=O)(=O)Nc2ccc3c(c2)CC(=O)N([C@H](C)CO)C[C@H](C)[C@@H](CN(C)S(=O)(=O)c2ccccc2)O3)cc1	-0.5
33	C[C@H]1CCCCO[C@@H](CN(C)S(=O)(=O)c2cccs2)[C@@H](C)CN([C@@H](C)CO)C(=O)c2cc(N(C)C)ccc2O1	0.2
34	C[C@H](CO)N1C[C@H](C)[C@@H](CN(C)Cc2ccc(C(F)(F)F)cc2)Oc2ccc(NS(C)(=O)=O)cc2CC1=O	-0.1
35	COc1ccc(NC(=O)Nc2ccc3c(c2)C(=O)N([C@H](C)CO)C[C@@H](C)[C@H](CN(C)S(=O)(=O)c2ccc(OC)cc2)OCCCC[C@@H](C)O3)cc1	0.3
36	COC(=O)[C@]1(CCC(=O)OC(C)(C)C)N=C(c2ccc(OCCCO)cc2)O[C@@H]1c1ccccc1N=[N+]=[N-]	-0.8
37	CC(C)NC(=O)N(C)C[C@@H]1Oc2ccc(NS(=O)(=O)c3cn(C)cn3)cc2C(=O)N([C@@H](C)CO)C[C@@H]1C	-0.7
38	C[C@@H]1CN([C@@H](C)CO)C(=O)Cc2cc(NC(=O)NC3CCCCC3)ccc2O[C@@H]1CN(C)Cc1ccc(C(=O)O)cc1	0.4
39	Cc1ccc(S(=O)(=O)N(C)C[C@H]2Oc3ccc(NS(=O)(=O)c4ccc(F)cc4)cc3C(=O)N([C@H](C)CO)C[C@H]2C)cc1	-0.1
40	C[C@@H]1CCCCO[C@H](CN(C)Cc2ccc(Cl)c(Cl)c2)[C@@H](C)CN([C@H](C)CO)C(=O)c2cc(NC(=O)Nc3cccc4ccccc34)ccc2O1	0.8
41	C[C@@H]1CN([C@@H](C)CO)C(=O)c2cccc(NC(=O)CCCCCC(=O)Nc3ccccc3N)c2O[C@@H]1CN(C)S(=O)(=O)c1ccccc1	1.6
42	C[C@@H]1CCCCO[C@H](CN(C)S(=O)(=O)c2ccc(Cl)cc2)[C@H](C)CN([C@H](C)CO)C(=O)c2cc(NC(=O)NC3CCCCC3)ccc2O1	-0.7
43	C[C@@H]1CCCCO[C@H](CN(C)Cc2ccncc2)[C@H](C)CN([C@H](C)CO)C(=O)c2cc(NS(=O)(=O)c3cccs3)ccc2O1	-0.6
44	COc1ccc(S(=O)(=O)Nc2ccc3c(c2)C(=O)N([C@H](C)CO)C[C@@H](C)[C@@H](CN(C)C(=O)NC(C)C)O3)cc1	0.1
45	C[C@@H]1CN([C@H](C)CO)C(=O)c2cc(NC(=O)CCCCCC(=O)Nc3ccccc3N)ccc2O[C@H]1CN(C)S(=O)(=O)c1cccs1	-1.6
46	C[C@@H]1CN([C@@H](C)CO)C(=O)c2cccc(NS(=O)(=O)c3ccc(F)cc3)c2O[C@H]1CN(C)C	-0.5
47	C[C@@H]1CCCCO[C@@H](CN(C)Cc2ccc3c(c2)OCO3)[C@@H](C)CN([C@H](C)CO)C(=O)c2cc(NC(=O)c3ccncc3)ccc2O1	0.3
48	C[C@@H]1CN([C@@H](C)CO)C(=O)c2cc(NS(=O)(=O)c3ccccc3)ccc2O[C@@H](C)CCCCO[C@H]1CN(C)C(=O)c1ccncc1	0.5
49	Cc1noc(C)c1NC(=O)N(C)C[C@@H]1Oc2ccc(NS(=O)(=O)c3c(C)noc3C)cc2CC(=O)N([C@H](C)CO)C[C@H]1C	0.5
50	C[C@@H]1CN([C@@H](C)CO)C(=O)c2cccc(NS(=O)(=O)c3cccs3)c2O[C@H]1CN(C)C(=O)Nc1cccc2ccccc12	0.6
51	C[C@@H]1CCCCO[C@H](CN(C)C(=O)c2ccncc2)[C@@H](C)CN([C@H](C)CO)C(=O)c2cc(NS(=O)(=O)c3ccc(F)cc3)ccc2O1	-1.4
52	CNC[C@H]1OCCCC[C@H](C)Oc2ccc(NS(=O)(=O)c3c(C)noc3C)cc2C(=O)N([C@@H](C)CO)C[C@H]1C	0.4
53	C[C@@H]1CN([C@@H](C)CO)C(=O)Cc2cc(NS(C)(=O)=O)ccc2O[C@@H]1CN(C)CC1CC1	-0.4
54	C[C@@H]1CCCCO[C@H](CN(C)C(=O)Nc2cccc3ccccc23)[C@@H](C)CN([C@H](C)CO)C(=O)c2cc(NC(=O)CCC(F)(F)F)ccc2O1	-0.5
55	C[C@@H]1CCCCO[C@H](CN(C)C)[C@@H](C)CN([C@H](C)CO)C(=O)c2cc(NC(=O)c3ccncc3)ccc2O1	1.4
56	C[C@H](CO)N1C[C@H](C)[C@H](CN(C)S(=O)(=O)c2cccs2)Oc2ccc(NC(=O)Cn3cnnn3)cc2CC1=O	0.6
57	Cc1noc(C)c1NC(=O)Nc1ccc2c(c1)CC(=O)N([C@H](C)CO)C[C@@H](C)[C@H](CN(C)C(=O)Nc1ccc3c(c1)OCO3)O2	0.6
58	C[C@H]1CN([C@@H](C)CO)C(=O)c2cccc(NC(=O)C3CC3)c2O[C@H]1CN(C)C(=O)Nc1ccc(F)cc1	-0.4
59	C[C@@H]1CN([C@@H](C)CO)C(=O)c2cccc(NC(=O)Nc3ccc(C(F)(F)F)cc3)c2O[C@H]1CN(C)S(=O)(=O)c1cccs1	-0.1
60	C[C@@H]1CN([C@@H](C)CO)C(=O)Cc2cc(NC(=O)c3ccncc3)ccc2O[C@@H]1CN(C)C(=O)Nc1ccc(F)cc1	-0.3
61	C[C@@H]1CN([C@@H](C)CO)C(=O)c2cccc(NC(=O)C3CC3)c2O[C@@H]1CN(C)C(=O)Nc1ccccc1	0.5
62	C[C@H]1CN([C@@H](C)CO)C(=O)c2cc(NC(=O)CCN3CCOCC3)ccc2O[C@H]1CN(C)C(=O)Nc1ccc(C(F)(F)F)cc1	0.3
63	CNC[C@@H]1Oc2ccc(NS(=O)(=O)c3ccccc3)cc2C(=O)N([C@@H](C)CO)C[C@H]1C	-0.1
64	CNC[C@H]1Oc2ccc(NC(=O)CCN3CCOCC3)cc2C(=O)N([C@@H](C)CO)C[C@H]1C	-0.3
65	Cc1ccccc1/C=N/NC(=O)CCCCCCC(=O)Nc1ccccc1O	1.6
66	C[C@@H]1CN([C@@H](C)CO)C(=O)c2cc(NS(=O)(=O)c3cn(C)cn3)ccc2O[C@@H](C)CCCCO[C@@H]1CN(C)C(=O)Nc1ccccc1	-1.7
67	C[C@@H]1CCCCO[C@@H](CN(C)C(=O)C2CCCCC2)[C@H](C)CN([C@H](C)CO)C(=O)c2cc(NC(=O)c3ccccc3)ccc2O1	0.0
68	C[C@@H]1CCCCO[C@@H](CN(C)C(=O)C2CCCCC2)[C@@H](C)CN([C@@H](C)CO)C(=O)c2cc(NC(=O)Nc3ccccc3)ccc2O1	-0.4
69	Cc1noc(C)c1NC(=O)Nc1ccc2c(c1)C(=O)N([C@@H](C)CO)C[C@@H](C)[C@H](CN(C)C(=O)Nc1ccccc1)OCCCC[C@@H](C)O2	1.4
70	CCCN(C)C[C@@H]1OCCCC[C@H](C)Oc2ccc(NC(=O)Nc3ccc(F)cc3)cc2C(=O)N([C@H](C)CO)C[C@@H]1C	-0.9

These rows are one share of the data. The share of hits here may be higher or lower than overall.
